Mtb hypoxia inh = inhibitors of hypoxia-regulated fluorescent reporter in Mycobacterium tuberculosis; M. tuberculosis hypoxia-regulated fluorescent reporter, fluorescence; fluorescence inhibition, % (no concentration beside the values); 300,000 compounds, 0.1% hits; AID 1159583;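 active = 35 to 45% if threefold the growth effect, above 45% if 1.5-fold the growth effect; inactive = the rest, general growth blockers included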;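 also: wells of about 50 µL received 100 nL stock; 0% = vehicle wells and 100% = reference inhibitor wells; whole bacteria with a GFP reporter of the hypoxia response; strong numbers were not always called active; many hits fall short of the cut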
Autofluor counter = counter-screen for toxin protease inhibitors: compound fluorescence; compound autofluorescence counterscreen, microsphere flow cytometry; hits give high values; fluorescence intensity (concentration not given with the values); 360,000 compounds, 3.1% hits; AID 624483;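 active = at least 3 SD above the mean of all compounds, about 16000 in these data; inconclusive = too few beads counted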;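 also: 100 nL of 1 mM stock went into each well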
PrP 5UTR inh = suppresses PrP 5' UTR mRNA reporter expression; cell-based PrP 5' UTR mRNA reporter, plate reader; inhibition, % (no concentration beside the values); 340,000 compounds, 0.35% hits; AID 488862;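 active = every replicate at 50% or more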;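 also: 0 = median of the neutral control wells; tested in H4 reporter cells; numbers are from one replicate; inactives centre near -14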
BJeLR lethal = BJeLR cell viability loss. BJeLR (HRASV12) viability, CellTiter-Glo ATP luminescence, 48 h; reference of the scale not given here. inhibition, % (concentration not given with the values). AID 1554. 300,000 compounds, 0.17% hits;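 active = replicate mean above 50%; inconclusive = above 50% but judged a plate artefact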;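 also: 50 nL library stock added to about 25 µL; numbers are from one replicate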
ugtP null kill = growth inhibition of S. aureus ugtP deletion strain. S. aureus RN4220 ugtP deletion, OD600 growth, 16 h; some inactives read as strong as hits. 330,000 compounds, 0.54% hits. growth inhibition, % (no concentration beside the values);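 active = z-score under -3 and OD600 up to 0.15 on both plates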;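 also: plate controls were untreated wells for no effect and antibiotic for full effect; wells of about 80 µL received 100 nL stock; the first replicate is given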
Sa RN4220 lethal = kills Staphylococcus aureus RN4220. AID 1259311. 330,000 compounds, 0.33% hits. S. aureus RN4220 growth, OD600, 16 h. inhibition, % (concentration not given with the values);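 active = z-score of -3 or lower and OD600 up to 0.18 on both plates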;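 also: plate controls were untreated cells for no effect and reference antibiotic for full effect; stock transfer was 100 nL into about 80 µL; one replicate is shown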
Mtb hypoxia inh growth = second read-out of Mtb hypoxia inh, no call of its own (marks repeat the call); growth inhibition, %; measured here: M. tuberculosis growth (absorbance);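 0% = vehicle and 100% = reference antibiotic; read after six days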
Active calls of the source: *; ? = inconclusive; · = no result given.

SMILES	Mtb hypoxia inh	Mtb hypoxia inh growth	Autofluor counter	PrP 5UTR inh	BJeLR lethal	ugtP null kill	Sa RN4220 lethal
CCOC(=O)Cc1cc(=O)[nH]c(/N=C(\N)Nc2ccc(C)cc2C)n1	·	·	23280*	-17	-5	·	·
Cn1nc(C(F)(F)F)c2cc(C(=O)Nc3ccc(F)cc3)sc21	14	21	5635	-16	-6	-2	1.8
COC(=O)c1cc2n(n1)CCCNC2=O	-3	12	3720	-17	3	3	2.9
CC(C)S(=O)(=O)c1csc(NC(=O)Nc2cccc([N+](=O)[O-])c2)c1Cl	-7	-4	4506	-14	-1	2	3.0
Cc1ccc(C(=O)NCCCNC(=O)COc2ccccc2Cl)cn1	9	-1	3597	-15	-7	-10	2.7
CCCn1c(NC(=O)c2ccc(Br)cc2)nc2ccccc21	6	3	11459	-20	2	-12	0.5
O=[N+]([O-])c1ccc2nc(SCc3cn4cccnc4n3)[nH]c2c1	8	16	4852	-1	7	10	2.8
CS(=O)(=O)NC1c2cccc3cccc(c23)C1N1CCOCC1 (stereo not drawn)	2	0	8047	-9	2	3	1.7
CS(=O)(=O)c1ccc(C(O)C(CO)NC(=O)C(Cl)Cl)cc1 (stereo not drawn)	80*	44*	·	·	·	70	44
CCOC(=O)c1c(NC(=O)CN2C(=O)NC3(CCCC3)C2=O)sc(C)c1CC	-2	0	?	4	2	-3	0.7
NC(=O)CC(NC(=O)c1ccccc1)c1ccc(NCCc2ccc(Cl)cc2)c([N+](=O)[O-])c1 (stereo not drawn)	4	-3	3188	-24	11	5	7.5
CC(CCC=CC(=O)O)OC1OC(C)C(O)CC1O (stereo not drawn)	1	1	·	·	·	-2	-1.7
CCOc1ccc(-n2c(O)c(/C=C3\C=Nc4ccccc43)c(=O)[nH]c2=O)cc1	-5	12	4684	-5	4	-2	0.3
Cc1ccc(NC(=O)Cc2ccc3c(c2)OCCO3)cc1S(=O)(=O)N1CCCCC1	4	-4	4694	-11	2	4	0.6
CC(=O)CSc1nc2ccccc2s1	5	-4	3802	-22	1	6	3.6
O=C(O)CCCNC(=O)c1ccc(NC(=O)Cc2ccc(Cl)cc2)cc1	7	0	4272	-16	2	1	-0.1
O=C(Nc1cc2c(oc1=O)CCCC2=O)c1ccccc1	2	3	5741	-26	11	6	1.4
O=C1CC(c2ccco2)CC(O)=C1C=Nc1ccc(Br)cc1 (stereo not drawn)	·	·	4173	-28	1	4	3.9
COc1ccccc1C(OC(=O)c1ccco1)C(=O)NCc1ccc(F)cc1 (stereo not drawn)	7	-9	3705	-37	9	8	0.6
COc1ccc(NC(=O)CN(C)C(=O)C(Sc2ccccc2)c2ccccc2)cc1 (stereo not drawn)	7	6	4049	-12	·	1	-2.5

Reprinted from above, 2 compounds:
SMILES	Mtb hypoxia inh	Mtb hypoxia inh growth	Autofluor counter	PrP 5UTR inh	BJeLR lethal	ugtP null kill	Sa RN4220 lethal
COc1ccccc1C(OC(=O)c1ccco1)C(=O)NCc1ccc(F)cc1 (stereo not drawn)	7	-9	3705	-37	9	8	0.6
COc1ccc(NC(=O)CN(C)C(=O)C(Sc2ccccc2)c2ccccc2)cc1 (stereo not drawn)	7	6	4049	-12	·	1	-2.5

Following part.
SMILES	Mtb hypoxia inh	Mtb hypoxia inh growth	Autofluor counter	PrP 5UTR inh	BJeLR lethal	ugtP null kill	Sa RN4220 lethal
CSc1sc(C(=O)OC(C)C)c2c1C(=O)CC(C)(C)C2	2	11	4091	-1	-3	5	2.0
CCn1c(C(=O)N2CCc3ccccc3C2)cc2oc3ccccc3c21	12	3	9116	-31	1	-6	9.8
Cn1cnnc1SCC(=O)Nc1ccc(OC(F)F)cc1	10	0	4290	-28	10	3	5.5
COc1ccc(CNC(=O)CN2C(=O)NC(C)(c3ccc(Cl)cc3)C2=O)cc1 (stereo not drawn)	7	4	3379	-6	-9	12	-0.1
CCN(CC(=O)Nc1cc(Cl)ccc1C)C(=O)c1ccc2c(=O)n3c(nc2c1)CCC3	-3	-8	5977	-17	14	12	4.6
CC(C)CC1NC(=O)N(CC(=O)Nc2cc(S(=O)(=O)N3CCOCC3)ccc2Cl)C1=O (stereo not drawn)	5	5	3913	4	·	-16	2.5
O=C(O)CCNS(=O)(=O)c1ccc2c(c1)CCCC2	14	5	3323	-24	-11	3	1.4
COc1ccc(-c2nnn(CC(=O)NCc3ccccc3)n2)cc1OC	5	9	8879	-17	-3	2	3.3
COc1ccc(C(C(=O)NCC2CCCO2)N(C(=O)Cn2nnc3ccccc32)c2ccc(NC(C)=O)cc2)cc1OC (stereo not drawn)	0	0	5077	-7	3	7	1.8
O=C(CC1SC(N2CCCC2)=NC1=O)Nc1ccc(C(=O)NCc2ccc(F)cc2)cc1 (stereo not drawn)	11	2	4153	-33	·	5	3.8
CCOc1ccc(CCNC(=O)CCCn2nc(C)c3c(C)n(-c4ccccc4)nc3c2=O)cc1	13	4	5561	-9	-18	2	1.0
O=C(NCCCN1CCOCC1)C(=O)N/N=C/c1ccc2c(c1)OCO2	·	·	4262	-32	-9	·	·
CCc1noc(C)c1C(=O)N(CC)CC(=O)NCc1ccc(Cl)cc1	2	9	8115	-13	·	-1	2.2
COC(=O)C1=C(C)N(C)C(=S)NC1c1ccc(Cl)cc1 (stereo not drawn)	10	-8	2254	-18	-5	-3	11
O=C(NCSc1ccncn1)c1ccccc1	-3	9	15665	-15	10	7	-2.4
O=C(CCn1c(=O)sc2ccccc21)NC1CCCCC1	·	·	4832	-14	-6	·	·
Cc1cccc(NC(=O)NCCN2C(=O)C3C4C=CC(C4)C3C2=O)c1 (stereo not drawn)	·	·	6202	-1	-14	1	6.3
O=C(CSc1nnc2c(Cl)cc(Cl)cn12)NC1CCS(=O)(=O)C1 (stereo not drawn)	8	-1	3287	-22	8	-2	-8.9
COc1ccc(CCNC(=O)c2cc(-c3cccs3)on2)cc1OC	3	5	9848	-38	9	2	5.8
CN1CCN(CCCCOc2ccc(F)cc2)CC1	-6	-5	8920	-1	-5	-1	-0.8
COc1ccc(CCNC(=O)c2ccc3c(SCC(=O)O)c4c(nc3c2)CCCC4)cc1OC	6	9	4624	-19	2	2	3.1
CC[C@]12c3[nH]c4cc(CCC(=O)N(C)C)ccc4c3CCN1C(=O)[C@@H](CC(=O)NCCCn1ccnc1)C[C@@H]2C(=O)N1CCN(C(=O)c2ccco2)CC1	-4	2	3040	42	·	7	3.1
Cc1cc(C)cc(OCC(O)Cn2nc(C)cc2C)c1 (stereo not drawn)	11	13	3930	-20	3	7	1.9
O=C(O)c1ccccc1/C=N/NC(=O)C1CCCCC1	·	·	3450	-14	15	·	·
Cc1ccccc1-c1nc2cc(N)ccc2o1	14	7	5326	-63	4	-6	8.6
O=C(CSc1nc2ccccc2c(=O)n1-c1ccc(F)cc1)NC1CC1	2	12	3888	-30	·	3	-2.3
CCOC(=O)C=C1CN(C(C)c2ccccc2)S(=O)(=O)c2ccccc21 (stereo not drawn)	14	7	·	·	·	-3	6.9
CCN(CC)CCCN1C(=O)C(O)=C(C(=O)c2cc3ccccc3o2)C1c1ccccn1 (stereo not drawn)	10	3	3872	-3	·	3	2.0
Cc1cccc(/C=C/C(=O)c2ccc([N+](=O)[O-])o2)c1	·	·	2840	-25	43	·	·
CC1CCC(NC(=O)c2ccc(NC(=O)c3ccc(=O)[nH]c3)cc2)CC1 (stereo not drawn)	9	3	·	·	-9	15	0.2
CCOC(=O)c1ccc(NS(=O)(=O)c2c(C)[nH]c(C)c2C(=O)N2CCCCC2)cc1	0	13	5491	-7	-10	-15	3.0
CNC(=O)COc1ccc(S(=O)(=O)Nc2ccc(OC)cc2)cc1	-3	2	3439	3	·	4	2.3
CC(NC(=O)Cn1cnnn1)C12CC3CC(CC(C3)C1)C2 (stereo not drawn)	-1	1	4158	-1	-9	-6	-0.4
NC(=O)CCCn1c(C(=O)c2ccc(Cl)cc2)c2ccc(C(F)(F)F)cc2[n+]1[O-]	5	6	4322	-39	0	4	3.1
Cc1ccccc1CCNC(=O)C1CCC(=O)N(CCc2cccc(F)c2)C1 (stereo not drawn)	15	3	?	-6	-4	-3	1.3
O=C(O)c1cc(-c2ccc3ccccc3c2)nc2ccc(F)cc12	0	2	6518	5	9	-9	5.5
COC(=O)c1nn(-c2ccccc2)c(=O)cc1Sc1ccc(Cl)cc1	3	-3	4483	-19	-3	-9	-2.3
CCN(CC(=O)Nc1c(F)cccc1F)C(=O)/C=C/c1ccc(OCC#N)c(OC)c1	8	-1	4279	-6	-11	4	1.9
O=C(COC(=O)c1cccnc1Nc1ccccc1F)NCc1ccc2c(c1)OCO2	15	10	4798	-13	1	3	-4.6
Cc1cccc(Nc2nc(N)nc(N)c2N=O)c1	7	6	3806	-8	·	-5	-2.5
CCCCNS(=O)(=O)c1ccc(NC(=O)Cc2ccccc2[N+](=O)[O-])cc1	-5	12	3193	-11	2	4	12
COCCCN1C(=O)C(O)=C(C(=O)c2ccco2)C1c1ccc(Br)cc1 (stereo not drawn)	1	7	3161	-19	9	-13	36
Cc1nc(C(=O)NCCO)cc2c1[nH]c1ccccc12	-16	2	4203	-12	1	1	2.2
CCc1cccc(CC)c1NC(=O)c1ccccc1CCc1ccccc1	9	7	2533	6	-6	8	11
Cc1cc(C)nc(-n2nc(C)cc2NC(=O)COC(=O)CCC(=O)c2cccs2)n1	·	·	4052	-6	-3	4	-0.5
COc1ccc(OCCCC(=O)OC(C)C(=O)Nc2ccc(NC(C)=O)cc2)cc1 (stereo not drawn)	7	-2	6050	-6	0	12	4.0
CC(C)(C)NC(=O)c1cnn(-c2ccccc2)c1NC(=O)c1ccccc1	-8	6	5787	-25	-8	-11	-2.9
O=C(COC(=O)c1ccc[nH]c1=O)Nc1ccc2c(c1)OC(F)(F)O2	7	1	5558	-16	-13	-2	3.1
COc1ccc(-n2c(C)c(C)c3c(NCCO)ncnc32)cc1	6	2	4161	-21	-11	3	0.4
CC(C)(C)CN1CCN(CC#Cc2ccccc2)CC1CCO (stereo not drawn)	0	0	3921	-28	-10	0	1.6

Whole records as entered above. Values in the order: Mtb hypoxia inh, Mtb hypoxia inh growth, Autofluor counter, PrP 5UTR inh, BJeLR lethal, ugtP null kill, Sa RN4220 lethal
Cc1cc(C)nc(-n2nc(C)cc2NC(=O)COC(=O)CCC(=O)c2cccs2)n1 reads ·, ·, 4052, -6, -3, 4, -0.5
CC(C)(C)NC(=O)c1cnn(-c2ccccc2)c1NC(=O)c1ccccc1 reads -8, 6, 5787, -25, -8, -11, -2.9
COCCCN1C(=O)C(O)=C(C(=O)c2ccco2)C1c1ccc(Br)cc1 (stereo not drawn) reads 1, 7, 3161, -19, 9, -13, 36
CCc1cccc(CC)c1NC(=O)c1ccccc1CCc1ccccc1 reads 9, 7, 2533, 6, -6, 8, 11

Following part:
SMILES	Mtb hypoxia inh	Mtb hypoxia inh growth	Autofluor counter	PrP 5UTR inh	BJeLR lethal	ugtP null kill	Sa RN4220 lethal
Cc1[nH]c2c(ccc3ccccc32)c1C1C(CCN)C1(C)C (stereo not drawn)	5	3	11894	-27	-9	-21	-1.1
O=C(Nc1ccccc1)c1c(F)cccc1F	-3	-2	8895	-26	0	5	5.2
Cc1cccc(-n2c(-c3ccccc3)c[nH]c2=S)c1C	3	7	3761	-1	7	5	-2.8
S=c1[nH]nc(-c2cccnc2)n1-c1ccc2c(c1)OCCO2	11	9	6844	-13	0	8	0.8
C1CCc2c(nc3nnnn3c2NC2CCCC2)C1	5	6	3162	-9	-6	1	5.7
Cc1nn(-c2cccc(C(=O)O)c2)c(C)c1[N+](=O)[O-]	0	6	4421	-26	0	-8	-1.5
O=C(CN1C(=O)c2cccc3cccc1c23)N1CCc2ccccc2C1	12	6	4886	-7	14	-5	-2.2
O=C(c1ccco1)N1CCN(C(=O)C2Cc3ccccc3CN2S(=O)(=O)c2ccc(F)cc2)CC1 (stereo not drawn)	7	3	3155	-19	-8	-6	-17
COc1ccccc1N(CC(=O)N/N=C/c1ccc(C(=O)O)cc1)S(=O)(=O)c1ccc(C)cc1	·	·	5258	-13	1	·	·
CC(C)c1ccc(C(C(=O)NC2CCCC2)N(C(=O)c2csnn2)C2CC2)cc1 (stereo not drawn)	11	2	3922	-17	-3	7	3.2
CC(C)=CC(=O)Nc1ccc2c(c1)OCO2	10	8	7855	-45	-1	9	4.1
COc1ccccc1N1CCN(/N=C/c2cc(OC)c(OC)c(OC)c2)CC1	·	·	9864	0	3	·	·

Screening data (PubChem BioAssay)

Compounds were not picked by outcome; about 4% have a hit in one of these screens.
